# High-throughput results from PubChem BioAssay.
# CHT inh: human CHT choline transport inhibition; CHT-expressing cells, membrane potential dye, choline response; hits give low values; hit rate 0.86% among 310,000; Q9GZV3; B-score at 10 µM;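 active = B-score over 3 SD under the library average, and starting fluorescence ratio not unusually high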;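 also: choline stimulus applied at its EC90 after an EC20 pre-addition; B-score computed on integrated fluorescence ratio after choline addition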
# Target sequence (Q9GZV3 whole entry, looked up): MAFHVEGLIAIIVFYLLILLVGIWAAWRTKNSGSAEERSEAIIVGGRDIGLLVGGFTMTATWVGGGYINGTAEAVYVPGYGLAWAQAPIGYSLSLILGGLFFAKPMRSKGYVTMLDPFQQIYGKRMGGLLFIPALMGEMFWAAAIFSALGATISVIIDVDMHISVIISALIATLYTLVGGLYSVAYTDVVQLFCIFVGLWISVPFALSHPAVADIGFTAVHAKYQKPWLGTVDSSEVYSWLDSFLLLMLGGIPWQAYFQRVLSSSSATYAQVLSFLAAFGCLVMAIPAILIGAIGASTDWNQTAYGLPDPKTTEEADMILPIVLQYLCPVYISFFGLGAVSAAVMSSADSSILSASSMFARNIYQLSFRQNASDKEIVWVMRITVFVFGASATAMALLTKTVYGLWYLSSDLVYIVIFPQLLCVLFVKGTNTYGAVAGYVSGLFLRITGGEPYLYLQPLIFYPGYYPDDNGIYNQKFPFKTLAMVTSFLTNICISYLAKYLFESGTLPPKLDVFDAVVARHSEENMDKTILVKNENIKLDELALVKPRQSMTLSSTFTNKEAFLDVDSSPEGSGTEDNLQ
# Calls only; i = inactive. An excerpt; most or all hits stand in other tables.
SMILES,CHT inh
CC(=O)c1nn(-c2ccc(C)cc2)cc1C(=O)c1cccc(Br)c1,i
CCOc1ccccc1NC(=O)Cn1nnc(-c2ccc(OCC)c(OCC)c2)n1,i
O=C(CSC1=NS(=O)(=O)c2ccccc2N1)Nc1ccc(F)cc1,i
CCCCN1C(=S)NC[C@@H]1Cc1cccc2ccccc12,i
CCOC(=O)CSc1ccccn1,i
c1ccc(SSc2ccccc2)cc1,i
O=C(Nc1ccccc1)N(Cc1ccccc1)Cc1ccccc1,i
CC1CCC2C(=O)N(c3ccc(Cc4ccncc4)cc3)C(=O)C2C1 (stereo not given),i
COc1ccc(C(=O)NCCn2cc(SCC(=O)Nc3cc(C)on3)c3ccccc32)cc1OC,i
Clc1ccc(-c2nnc3n2CCCCC3)cc1,i
COc1ccccc1CN1C(=O)C2CC=CCC2C1=O (stereo not given),i
CCc1nnc(NC(=O)[C@@H](NC(=O)c2cccc(S(=O)(=O)N(CC)CC)c2)C(C)C)s1,i
Cc1cccc(C)c1NC(=S)N/N=C/c1ccc(OCCC(C)C)cc1,i
CCOC(=O)CN(C(=O)CN1CCC(n2nnc3cc(C)ccc32)CC1)c1ccccc1,i
O=C(COc1ncnc2sccc12)Nc1ccc(F)cc1F,i
CC(C)(C)Nc1nc(OCC#N)nc(N2CCCCC2)n1,i
CCOC(=O)Cc1csc(NC(=O)c2ccc3c(c2)OCO3)n1,i
S=C(NCCC1=CCCCC1)NCc1ccco1,i
O=c1ccc2ccc(OCCOc3cccc(Cl)c3)cc2o1,i
Cc1ccc2cc(C)c(N3CCC(C)CC3)nc2c1,i
CC(=O)Nc1cccc(C(=O)OCC(=O)c2ccc(S(=O)(=O)N3CCCCC3)cc2)c1,i
CN(C)CCCNc1cc(C(C)(C)C)nc2c(-c3ccc(Cl)cc3)cnn12,i
Cc1ccc(-c2csc(NC(=O)CSc3nc4ccccc4o3)n2)cc1,i
Nc1cc(-c2ccccc2)ccc1O,i
CCOc1cc2[nH]c(=S)n(CCCN(CC)CC)c(=O)c2cc1OCC,i
COc1ccc(S(=O)(=O)N2CCCC(C(=O)NCCC(C)C)C2)cc1 (stereo not given),i
COc1ccc(CN(CC(=O)NC2CCCC2)C(=O)CCC(=O)Nc2cc(C)on2)cc1,i
CCC(C)(C)NC(=O)CN(C(=O)CCC(=O)Nc1nccs1)c1ccc(C)cc1,i
NC(=O)C1CCN(C(=O)Cc2ccc([N+](=O)[O-])cc2)CC1,i
CNCC[C@@H](Oc1ccccc1C)c1ccccc1,i
Cc1ccc(S(=O)(=O)N2CCN(S(C)(=O)=O)C2C)cc1 (stereo not given),i
O=C(Nc1nc2ccccc2[nH]1)C1CCCC1,i
Cc1ccccc1N(C(=O)c1ccccn1)C(C(=O)NCc1ccccc1)c1cccnc1 (stereo not given),i
CS(=O)CSc1nc2c(cc1C#N)CCCC2 (stereo not given),i
Cc1cc(C)cc(-c2nnc(SCc3ccc(C(=O)O)cc3)o2)c1,i
O=C1c2ccsc2SCCN1Cc1ccccc1,i
COc1ccc(Cc2nnnn2CC(=O)O)cc1,i
CC(C)OCC(O)CCc1n[nH]c(=S)n1-c1ccccc1 (stereo not given),i
Cc1sc(NC(=S)Nc2ccc(F)cc2)c(C(N)=O)c1C,i
Cc1ccc(S(=O)(=O)N2CCC(C(=O)NCC3CCCCC3)CC2)cc1,i
Cc1ccc([C@@H]2[C@@H]3C(=O)N(C)C(=O)[C@@H]3[C@]3(Cc4ccccc4)C(=O)N(Cc4ccccn4)CC(=O)N23)o1,i
CCCCn1nnc(NC(=O)c2sc3cc(Cl)ccc3c2Cl)n1,i
O=C(NCCN1CCOCC1)c1cc2sccc2n1Cc1ccc(Cl)cc1,i
N#Cc1cccc(C(=O)OCC(=O)NC(=O)NC2CCCCC2)c1,i
O=C(NCC1CCCO1)c1ccc(Oc2ccc([N+](=O)[O-])cc2Cl)cc1 (stereo not given),i
C=CCN1C(=Nc2ccccc2)SC/C1=C\C(=O)OC,i
CC1CCC(C(=O)NC(C(=O)NCc2ccccn2)C(C)C)CC1 (stereo not given),i
CN(NC(=S)Nc1ccc(OC(F)F)cc1)C(=S)Nc1ccc(OC(F)F)cc1,i
Cc1ccc(NC(=O)CN(C)c2ccc(S(=O)(=O)N3CCCC3)cn2)cc1,i
CC1(C)S[C@@H]2[C@H](NC(=O)[C@H](N)c3ccc(O)cc3)C(=O)N2[C@H]1C(=O)O,i
# (more compounds)
SMILES,CHT inh
CC(=O)c1cccc(NC(=O)CSc2nc(=O)n(CCN3CCOCC3)c3c2CCC3)c1,i
COc1ccc(Cl)cc1-n1c(C)cc(C=O)c1C,i
CCN1C(C)=C(C)S/C1=C1\SC(=S)N(C2CCCCC2)C1=O,i
NS(=O)(=O)c1ccc(NC(=O)c2ccc3c(c2)OCO3)cc1,i
O=C(NNC(=O)c1sccc1-n1cccc1)c1ccccc1,i
Cc1ccc(S(=O)(=O)N2CCCCC2)cc1NC(=O)CSc1ccc2c(c1)OCCO2,i
COc1ccc(Cl)cc1S(=O)(=O)NCc1cccnc1,i
CCCCNC(=O)CSc1cc(=O)n(C)c2ccccc12,i
Cc1ccc(S(=O)(=O)N2CCN(C(=O)c3ccccc3)C2)cc1[N+](=O)[O-],i
CN(C)c1ccc(-c2nc3ccccn3c2/N=C/c2ccc(Br)cc2)cc1,i
c1ccc(-c2nccc(-c3ccc(-n4cnc5ccccc54)cc3)n2)nc1,i
CN(Cc1cnn(C)c1)C(=O)c1cc2ccccc2oc1=O,i
O=c1cc(CSc2nnc(-c3cccnc3)n2-c2ccccc2F)nc2sccn12,i
Cc1ccc2nc(NC(=O)c3ccc(Cn4cc(Cl)cn4)o3)sc2c1,i
OCCC1CN(Cc2ccc(F)cc2)CCN1CCc1ccccc1 (stereo not given),i
O=C(Cc1ccccc1)c1ccc2c(c1)OCCO2,i
CC(C)(C)NC(=O)CN(Cc1ccc2c(c1)OCO2)C(=O)CNC(=O)c1cccs1,i
COC(=O)c1nc(NC(=O)c2ccccc2Cl)n[nH]1,i
Cc1ccc(OCC(=O)NC2CC(C)(C)NC(C)(C)C2)cc1C,i
CC(=O)Nc1ccc(NC(=O)CCOc2cc(C)ccc2C)cc1,i
CC1(C)CC(=O)c2c(n(-c3cccc4ccccc34)ccc2=O)C1,i
CCOC(=O)C1CCCCN1Cc1cc(OC)ccc1OC (stereo not given),i
Oc1ccc(C2Nc3cccc4cccc(c34)N2)c(O)c1,i
O=C(O)c1ccc(CN(c2ccccn2)S(=O)(=O)c2ccccc2)cc1,i
CCOC(=O)C1(CC)NC(c2cccc(F)c2)C2C(=O)N(CC)C(=O)C21 (stereo not given),i
C=CCn1c(COc2cccc3ccc(C)nc23)nnc1SCC(=O)OC,i
CCCCCC(=O)O/N=C(\C)c1ccn(S(=O)(=O)c2ccccc2)c1,i
Cc1ccc2c(c1)Sc1ccccc1CC2=O,i
COCc1ccc(C(=O)N(C)CC2CCCN(CCc3ccc(Cl)cc3)C2)o1 (stereo not given),i
Cc1nnc(SCCC(=O)Nc2ccc(F)cc2)s1,i
CNC(=O)COC(=O)c1cc2c(C)nn(-c3ccc(F)cc3)c2s1,i
CC(C)OCCCN1CC(=O)N2C(c3ccccc3)c3[nH]c4ccccc4c3C[C@H]2C1=O (stereo not given in full),i
COc1ccc(CCNC(=O)C2CCN(Cc3nc(-c4ccccc4F)oc3C)CC2)cc1OC,i
CCC(c1nnc(SCC(=O)Nc2ccc(C(=O)N(C)C)cc2)n1Cc1ccccc1)N(C)C (stereo not given),i
Cc1cccc(C)c1NC(=O)CCCN1CC(C)OC(C)C1 (stereo not given),i
COc1cc(OC)cc(C(=O)Oc2c(CN3CCOCC3)cc(Cl)c3cccnc23)c1,i
O=C(CNC(=O)c1ccco1)OCC(=O)c1ccccc1Cl,i
CC(C)(C)c1ccc(-c2c(C#N)c(N)nc3c2CCCC3)s1,i
CC(C)Oc1ccccc1C(=O)NC(CO)C(=O)O (stereo not given),i
Cc1cc2ccccn2c1C(=O)c1nc(NCc2ccccc2)ncc1Cl,i
O=C(Cn1cnc2sc(-c3ccccc3)cc2c1=O)NCc1ccccc1,i
CCNc1nc(OC)nc(N2CCC(Cc3ccccc3)CC2)n1,i
CCC(C)c1ccccc1OCCn1ccnc1 (stereo not given),i
CCCCc1noc2c1/C(=N\O)CC(c1ccccc1)C2 (stereo not given),i
CCCn1nc(C(=O)OCn2nnc3ccccc3c2=O)c2ccccc2c1=O,i
Cc1ccccc1OCc1ccc(C(=O)N2CC(C)OC(C)C2)o1 (stereo not given),i
CC(C)C[C@H](NC(=O)c1nc[nH]c1C(=O)N1CCC(C)CC1)C(=O)OC(C)(C)C,i
COc1ccc(C(C(=O)NC2CCCCC2)N(C(=O)c2ccccn2)c2cccnc2)c(OC)c1 (stereo not given),i
COc1ccc(-c2csc(NC(=O)CSCC(=O)Nc3cc(C)on3)n2)c(OC)c1,i
COC(=O)c1ccccc1OCCN1CCCCCC1,i

# Four compounds from above, ordered by heavy-atom count, lowest first:
SMILES,CHT inh
Cc1ccccc1OCc1ccc(C(=O)N2CC(C)OC(C)C2)o1 (stereo not given),i
O=C(Cn1cnc2sc(-c3ccccc3)cc2c1=O)NCc1ccccc1,i
CC(C)C[C@H](NC(=O)c1nc[nH]c1C(=O)N1CCC(C)CC1)C(=O)OC(C)(C)C,i
COc1ccc(-c2csc(NC(=O)CSCC(=O)Nc3cc(C)on3)n2)c(OC)c1,i

# (further entries)
SMILES,CHT inh
COc1ccc(-c2csc(C)n2)cc1OC,i
Cc1cccc(OP(=O)(Nc2c(C)n(C)n(-c3ccccc3)c2=O)Oc2cccc(C)c2)c1,i
Nn1c(SCC(=O)Nc2ccc3c(c2)OCCO3)nnc1-c1ccccn1,i
O=C(Nc1ncc(S(=O)(=O)c2ccc([N+](=O)[O-])cc2)s1)c1ccccc1F,i
Cc1noc(NS(=O)(=O)c2ccc(N3Cc4ccccc4C3=O)cc2)c1C,i
NC(=O)CC(NC(=O)Cc1cccc2ccccc12)c1ccc(NCc2ccccc2)c([N+](=O)[O-])c1 (stereo not given),i
O=C(NCc1ccco1)C12CC3CC(C1)CC(C(=O)NCc1ccco1)(C3)C2,i
Cc1cc(C)n2nc3nc(N4CCCCC4)nc(-c4ccco4)c3c2n1,i
CCCCN1CN(Cc2ccccc2)CNC1=S,i
CCCOC(=O)/C(=C\C=C\c1ccco1)NC(=O)c1ccccc1,i
CC(C)N(Cc1nc(-c2ccc(Cl)cc2)no1)C(=O)C12CC3CC(CC(C3)C1)C2,i
CCC(C)(C)NC(=O)C(c1ccncc1)N(C(=O)c1sc(C)nc1C)c1ccc(F)cc1 (stereo not given),i
CCCn1c(=N)n(CC(=O)O)c2ccccc21,i
CCCCN1C(=S)SC(C)(C)C1/[N+]([O-])=C/c1cccnc1 (stereo not given),i
O=C(CSc1nnnn1Cc1ccccc1)NCC(=O)c1ccccc1,i
CCc1nnc(NC(=O)c2nc(Cl)ccc2Cl)s1,i
Cc1ccc(NS(=O)(=O)c2c(C)nc3sccn3c2=O)cc1C,i
CCCCN1CC2([N+](=O)[O-])C=CC(=O)C([N+](=O)[O-])(C1)C2CC(=O)c1ccccc1 (stereo not given),i
O=S(=O)(NCc1ccccc1Br)c1cccs1,i
O=C(c1cccs1)N1CCn2c1nc1ccccc12,i
CSc1c(CC(=O)NCCO)n(C)c2ccccc12,i
COc1cccc(C(=O)Oc2cc(N)n(S(=O)(=O)c3ccc(C)cc3)n2)c1OC,i
COc1ccc(-c2cc(=O)oc3cc(OCC(=O)N[C@@H](Cc4c[nH]c5ccccc45)C(=O)O)ccc23)cc1,i
COc1ccccc1N1CCN(C(=O)COc2cccc(C)c2C)CC1,i
CC(=O)NC1C2CN3CCN(C2)CC1(Cc1ccccc1)C3 (stereo not given),i
COCCSc1ccccc1C(=O)NCc1ccc2c(c1)OCO2,i
Cc1oc2cc(OC(=O)c3ccco3)ccc2c(=O)c1-c1nc2ccccc2n1C,i
CCCCn1c(N)c(N(CC)C(=O)c2ccc(C)cc2)c(=O)[nH]c1=O,i
CC(=O)COc1ccc2c(-c3ccccc3)cc(=O)oc2c1C,i
CN1C2C=C(N(CCc3ccccc3)C(=O)c3ccc(Cl)cc3)CC1CC2 (stereo not given),i
O=C1CCCN1CCNC(=S)Nc1ccccc1,i
Cc1cccc(-n2c(O)c(C=Nc3ccc4c(c3)OCO4)c3ccccc3c2=O)n1,i
CC(C)(C)c1[nH]nc2c1C(c1ccoc1)C(C#N)=C(N)O2 (stereo not given),i
Cc1cc(N(CCO)CCO)nc(-n2nc(C)cc2C)n1,i
O=c1c2cn[nH]c2[nH]c(=S)n1-c1cccc(Cl)c1,i
CCC(=O)Nc1nc2ccccc2n1CCN(C)C,i
CCCCn1c(SCC(=O)N(CC)C2CCS(=O)(=O)C2)nc2cc(S(N)(=O)=O)ccc21 (stereo not given),i
Cc1ccc(N2CC(C(=O)Nc3nnc(SCC(=O)NCC4CCCO4)s3)CC2=O)cc1 (stereo not given),i

# Among those listed so far, 18 have a Cl atom:
SMILES,CHT inh
Clc1ccc(-c2nnc3n2CCCCC3)cc1,i
O=c1ccc2ccc(OCCOc3cccc(Cl)c3)cc2o1,i
CN(C)CCCNc1cc(C(C)(C)C)nc2c(-c3ccc(Cl)cc3)cnn12,i
CCCCn1nnc(NC(=O)c2sc3cc(Cl)ccc3c2Cl)n1,i
O=C(NCCN1CCOCC1)c1cc2sccc2n1Cc1ccc(Cl)cc1,i
O=C(NCC1CCCO1)c1ccc(Oc2ccc([N+](=O)[O-])cc2Cl)cc1 (stereo not given),i
COc1ccc(Cl)cc1-n1c(C)cc(C=O)c1C,i
COc1ccc(Cl)cc1S(=O)(=O)NCc1cccnc1,i
Cc1ccc2nc(NC(=O)c3ccc(Cn4cc(Cl)cn4)o3)sc2c1,i
COC(=O)c1nc(NC(=O)c2ccccc2Cl)n[nH]1,i
COCc1ccc(C(=O)N(C)CC2CCCN(CCc3ccc(Cl)cc3)C2)o1 (stereo not given),i
COc1cc(OC)cc(C(=O)Oc2c(CN3CCOCC3)cc(Cl)c3cccnc23)c1,i
O=C(CNC(=O)c1ccco1)OCC(=O)c1ccccc1Cl,i
Cc1cc2ccccn2c1C(=O)c1nc(NCc2ccccc2)ncc1Cl,i
CC(C)N(Cc1nc(-c2ccc(Cl)cc2)no1)C(=O)C12CC3CC(CC(C3)C1)C2,i
CCc1nnc(NC(=O)c2nc(Cl)ccc2Cl)s1,i
CN1C2C=C(N(CCc3ccccc3)C(=O)c3ccc(Cl)cc3)CC1CC2 (stereo not given),i
O=c1c2cn[nH]c2[nH]c(=S)n1-c1cccc(Cl)c1,i
